Screening data (PubChem)
Ecoli rRNA inh = selective bacterial rRNA inhibition in E. coli | E. coli WT GFP vs humanized-ribosome RFP mutants, fluorescence, 24 h; active compounds read low; DMSO median 0, no signal -100 | GFP signal change (wild-type ribosome), % (test concentration not listed) | actives 1.6% (n = 350,000) | AID 720706;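 active = significant combined selectivity score with lowered wild-type GFP, culture density cut under 30%, mutant RFP and density less affected; inactive = any of these conditions unmet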; also: one replicate is shown; some compounds called inactive have numbers as strong as hits
ALR H2O2 inh = inhibitors of human sulfhydryl oxidase ALR | P55789 | purified ALR, DTT oxidation, H2O2 HRP-luminol luminescence | inhibition, % (no concentration beside the values) | actives 3.8% (n = 290,000);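 active = mean and each replicate at 75% or more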;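 also: stock transfer was 7.5 nL into about 7.5 µL; 0% = neutral wells and 100% = wells with inactivated enzyme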
Target sequence (P55789 whole entry, looked up): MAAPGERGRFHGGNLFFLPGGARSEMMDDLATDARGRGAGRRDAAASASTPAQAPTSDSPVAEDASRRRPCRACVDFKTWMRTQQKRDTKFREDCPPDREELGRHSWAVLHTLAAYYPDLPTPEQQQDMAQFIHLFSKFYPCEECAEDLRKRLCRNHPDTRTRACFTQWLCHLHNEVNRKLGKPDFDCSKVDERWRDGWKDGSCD
UCH37 DUB inh = blocks the human deubiquitinase UCH37. purified proteasome/UCH37, Ub-AMC cleavage fluorescence. inhibition, % (no concentration beside the values). actives 0.33% (n = 330,000);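 active = mean of two replicates above 20%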;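 also: 0% = compound-free wells with enzyme and 100% = wells lacking proteasome; stock transfer was 100 nL into about 20 µL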
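Material: Human UCH37 enzyme supplied as purified proteasome complex | Schedule: 30 min preincubation with enzyme, 25 min cleavage at room temperature | Detection: AMC fluorescence 355/460 nm | Measure: % inhibition of Ub-AMC cleavage fluorescence | Controls: Wells without proteasome as full block, compound-free enzyme plus substrate as uninhibited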
B2AR ag = activates human beta-2 adrenergic receptor causing internalization; Am2.2-beta2AR cells, FAP receptor internalization, flow cytometry; reference of the scale not given here; AID 504454; actives 0.43% (n = 340,000); response, % (test concentration not listed);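 active = response above a set limit, near 3 SD of response in nonfluorescent compounds, cut at about 42% in these data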;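 also: stock transfer was 100 nL into about 11 µL; a reference agonist was the positive control; negative values mostly stem from fluorescent compounds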
Target sequence (P07550 whole entry, looked up): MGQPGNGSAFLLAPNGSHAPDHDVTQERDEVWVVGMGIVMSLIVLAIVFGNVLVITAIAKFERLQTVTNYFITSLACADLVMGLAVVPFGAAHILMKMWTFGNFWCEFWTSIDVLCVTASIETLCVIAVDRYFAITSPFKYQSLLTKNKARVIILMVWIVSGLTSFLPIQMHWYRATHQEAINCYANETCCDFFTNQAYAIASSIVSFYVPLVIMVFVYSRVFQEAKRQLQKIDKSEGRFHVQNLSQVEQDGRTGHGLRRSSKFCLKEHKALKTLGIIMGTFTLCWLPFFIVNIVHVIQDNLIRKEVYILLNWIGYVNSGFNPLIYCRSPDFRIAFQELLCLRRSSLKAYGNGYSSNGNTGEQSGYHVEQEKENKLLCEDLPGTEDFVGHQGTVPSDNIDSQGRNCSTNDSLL
HNF4A DNA FP = change in binding of human HNF4 alpha to DNA; P41235; HNF4a-FITC DNA binding, fluorescence polarization, 1 h; activity change, % at 10 µM; actives 0.3% (n = 360,000); in the data active = activity change above about 30%, passing the limit was not always enough;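 also: controls were the assay level and a saturating level of protein; the project sought stronger binding though the title names inhibitors; some compounds called inactive have numbers as strong as hits; positive values seem to mean higher polarization but the record does not say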
E coli growth = blocks Escherichia coli growth; OD600, 23 h; active compounds read low; OD600 absorbance (test concentration not listed); actives 0.21% (n = 330,000); AID 1053175;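 active = OD600 absorbance below the run mean of sample wells minus 3.6 SD, in any replicate, cut at about 0.56 in these data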;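 also: stock transfer was 300 nL into about 60 µL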
FGF22 binding = binders of recombinant human FGF22 by thermal shift; Q9HCT0; SYPRO orange fluorescence; percent of sucrose octasulfate shift, DMSO zero; calls only at 9.99 µM; actives 1.5% (n = 340,000); AID 651658;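 active = melting point raised past a set limit in the mean and every replicate; three in four hits are not shown here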
Target sequence (Q9HCT0 whole entry, looked up): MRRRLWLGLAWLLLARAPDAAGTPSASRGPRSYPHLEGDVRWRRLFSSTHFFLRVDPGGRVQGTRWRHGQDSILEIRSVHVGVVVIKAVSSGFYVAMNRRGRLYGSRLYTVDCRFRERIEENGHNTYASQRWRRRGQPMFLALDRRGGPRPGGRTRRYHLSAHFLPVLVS
Ecoli rRNA inh OD600 = also measured in Ecoli rRNA inh; calls as there; OD600 change, %; measured here: OD600 growth;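 optical density of the mix in the first replicate; 0 = DMSO median and -100 = no signal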
Ecoli rRNA inh RFP = second read-out of Ecoli rRNA inh, no call of its own (marks repeat the call); RFP signal change, %; measured here: RFP humanized mutant strains;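 first replicate; 0 = DMSO median and -100 = no signal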
* hit, by the source's call; i = inactive; x = no result given; & = joins results of further samples. Only part of the results is shown; count on the stated rates, not on these rows.

SMILES	Ecoli rRNA inh	Ecoli rRNA inh OD600	Ecoli rRNA inh RFP	ALR H2O2 inh	UCH37 DUB inh	B2AR ag	HNF4A DNA FP	E coli growth	FGF22 binding
COc1ccc(-c2nc3cc(C)ccn3c2NC(=O)c2ccccc2OC)cc1	-5.5	-3.2	0.5	38.2	1.3	9.0	8.2	0.679	i
O=C(NC1CC(=O)N(c2ccc3c(c2)OCCO3)C1)N1CCCCC1 (stereo unspecified)	0.2	3.7	-3.6	4.8	5.7	-5.1	-1.3	0.643	i
CCCc1cc(=O)oc2cc(C)cc(OC(C)C(=O)NCc3cccnc3)c12 (stereo unspecified)	-4.0	-6.2	1.1	-35.0	-147.0	0.6	-3.2	0.672	i
COc1ccc(-c2[nH]ncc2CN(CCO)Cc2cccs2)c(F)c1	x	x	x	-6.1	x	0.7	-3.4	x	i
N#C/C(=C\c1cccs1)C(=O)NCc1ccco1	2.0	0.0	1.5	0.0	11.5	9.3	-7.5	0.698	i
CCOC(=O)C1(C)CCCN1C(=O)c1ccc(OC)c(OC)c1 (stereo unspecified)	5.8	12.6	0.4	x	x	x	0.3	x	i
COc1ccc(C(CC(=O)O)NC(C)=O)cc1OC (stereo unspecified)	x	x	x	2.9	2.1	3.8	1.4	0.717	x
Cc1ccc(C(=O)OCC(=O)Nc2cc(S(C)(=O)=O)ccc2Cl)cc1S(=O)(=O)N1CCCCC1	-3.4	-9.5	0.5	-4.8	2.1	0.3	-1.1	0.728	i
O=C(COC(=O)CNC(=O)c1ccccc1)Nc1ccc(F)c([N+](=O)[O-])c1	1.3	-4.1	-0.4	-0.4	2.3	8.8	1.2	0.65	i
NC(=O)C1(Nc2ccc(-c3ccc(Br)cc3)cc2)CCCC1	-6.6	-2.4	6.9	x	x	4.3	-3.3	x	i
Cc1sc(N)nc1-c1ccc2c(c1)OCCO2	4.3	2.1	0.8	59.5	1.4	1.0	2.2	0.662	i
O=S(=O)(c1ccc2c(c1)OCCO2)N1CCc2ccccc21	-34.0	-34.8	-3.5	-5.3	4.5	0.8	-6.2	0.741	i
COc1ccc(C(=O)Nc2nc3ccc(S(C)(=O)=O)cc3s2)cc1	x	x	x	-7.3	0.7	7.1	-1.3	0.702	x
COc1ccc(NC(=O)CN(C)CC(=O)c2[nH]c(C)c(C(C)=O)c2C)cc1	x	x	x	x	5.3	-4.2	2.5	0.676	i
CCC(C)NC(=O)c1ccc(CS(=O)(=O)c2ccc(OC)cc2)o1 (stereo unspecified)	0.0	1.8	-2.3	x	3.6	-2.2	-2.2	0.734	i
O=C(NCCNC(=O)c1ccccc1Br)c1cccnc1	13.5	21.0	1.0	1.5	-0.4	-10.7	-2.8	0.637	i
CC(C)N(C(=S)Nc1cccc(C(F)(F)F)c1)C(C)c1ccccn1 (stereo unspecified)	-28.9	-34.1	-1.0	3.7	-0.3	0.6	0.7	0.651	i
Cc1c(Cl)c(C(F)(F)F)nn1CC(=O)NN	2.7	0.5	2.5	15.6	2.2	-7.6	-3.4	0.664	i
COc1cccc(NC(=O)COC(=O)Cc2ccc(Cl)cc2)c1	-36.0*	-8.3*	1.2*	x	2.6	2.1	2.8	0.69	x
CCO[C@@H]1OC(C(=O)N2CCN(Cc3ccccc3)CC2)=C[C@H](c2coc3ccccc3c2=O)[C@H]1CCCO	-4.2	-3.9	0.2	2.3	3.2	-1.3	x	x	i
Cn1c(=O)cc(OCCCC(=O)Nc2ccccn2)c2ccccc21	x	x	x	-3.4	4.5	6.2	-2.0	0.653	x
CCC(C)(C)n1nnnc1C(c1ccc2ncccc2c1)N1CCN2CCCC2C1 (stereo unspecified)	9.5	2.2	-0.5	x	-1.5	-1.1	5.3	0.677	i
COc1cc(NCCCn2cnc(C(=O)Nc3ccc(C)c(C)c3)n2)cc(OC)c1OC	-2.8	-4.1	0.8	x	x	7.2	3.6	x	i
CNc1cc([N+](=O)[O-])ccc1OCc1ccccc1	0.3	27.8	14.1	12.5	4.4	5.9	-0.4	0.653	i
COc1ccc(C(=O)NNC(=O)CSc2nnc(C3CC3)n2C)cc1	0.7	4.0	-1.8	x	0.6	-7.4	0.0	0.663	i

The results go on.
SMILES	Ecoli rRNA inh	Ecoli rRNA inh OD600	Ecoli rRNA inh RFP	ALR H2O2 inh	UCH37 DUB inh	B2AR ag	HNF4A DNA FP	E coli growth	FGF22 binding
Cc1nn(C(=O)Cn2ccc([N+](=O)[O-])n2)c(C)c1Cl	9.5	3.1	-4.1	-0.6	0.8	-3.1	-0.5	0.689	i
Fc1ccc(Oc2ccnc(Cl)n2)c(Cl)c1	13.8	3.7	0.6	-3.2	4.6	-2.4	x	0.661	i
O=c1[nH][nH]c(C(F)(F)F)c1/C=N/N1CCOCC1	11.4	14.6	-0.4	0.1	x	-5.1	2.9	x	i
Cc1c(N2C(=O)/C(=C/c3cccc4ccccc34)SC2=S)c(=O)n(-c2ccccc2)n1C	x	x	x	-3.5	7.7	21.7	-3.4	0.715	x
COc1ccc(Cl)cc1NC(=O)CN(C)C(=O)CN1C(=O)NC2(CCCC2)C1=O	3.7	3.6	1.1	-8.7	2.6	0.6	4.8	0.61	i
CCOC(=O)N1CCC(N2Cc3cccc(C(=O)Nc4ccc(N(CC)CC)cc4C)c3C2=O)CC1	-22.4	-10.2	-0.9	49.7	1.6	12.8	-5.7	0.681	i
COc1ccccc1OCC(=O)NCCSCc1ccc(Cl)cc1	-33.1	-44.5	-13.4	25.4	-1.3	-0.2	-0.5	0.663	i
Cc1ccc(NC(=O)c2cc(N3C(=O)CCC3=O)ccc2N2CCOCC2)cc1	3.9	4.1	0.7	-4.5	-0.7	-0.2	-0.6	0.701	x
Cc1cccc(C(=O)Nc2nsc(N)n2)c1	4.6	7.6	4.6	-18.6	6.0	-4.7	-2.8	0.692	i
COC(=O)c1c(NC(NC(=O)C(C)(C)C)C(Cl)(Cl)Cl)sc2c1CCC2 (stereo unspecified)	x	x	x	-2.4	-2.2	0.9	2.7	0.76	x
O=C(O)C(Cc1ccc(O)cc1)N1C(=O)C2CCCCC2C1=O (stereo unspecified)	8.9	2.1	2.3	8.0	3.8	8.1	-0.3	0.689	i
Cc1ccc(N2CC(C(=O)N/N=C/c3cccc([N+](=O)[O-])c3)CC2=O)cc1 (stereo unspecified)	x	x	x	-0.7	x	1.0	-2.8	x	x
O=S(=O)(c1ccc(-c2nnc(SCc3nnc(-c4ccccc4)o3)o2)cc1)N1CCCC1	x	x	x	-0.7	2.3	0.4	1.4	0.709	x
O=C(COC(=O)C1(c2ccccc2F)CCCC1)NC1CCS(=O)(=O)C1 (stereo unspecified)	x	x	x	-31.6	-0.7	-5.8	-3.8	0.677	x
Cc1n[nH]c(=S)n(NC(=O)/C=C/C(=O)Nn2c(=S)[nH]nc(C)c2=O)c1=O	-2.7	-3.4	-2.5	x	-2.0	-11.4	-7.2	0.666	i
COc1ccc(CCC(=O)Nc2ccc(Cn3ccnc3)cc2)cc1	0.1	1.1	1.1	2.3	1.5	-11.7	-0.7	0.672	i
CCCc1cc(=O)[nH]c(SCC(=O)N2CCN(S(=O)(=O)c3ccccc3)CC2)n1	x	x	x	-0.6	0.6	1.4	-0.5	0.705	x
COc1ccc2oc(-c3ccc(C)c(NC(=O)c4ccc(N5CCOCC5)c([N+](=O)[O-])c4)c3)nc2c1	x	x	x	-5.6	-1.0	13.2	1.6	0.765	x
CCOC(=O)c1cc(-c2ccccc2)n(CC(=O)Nc2cccc(OC)c2)c1C	8.5	17.8	0.2	-9.9	4.2	-1.6	-1.9	0.658	i
Cc1ccccc1-c1nc(-c2ccc(NC(=O)c3ccc(Br)o3)cc2)no1	x	x	x	1.0	-47.3	-0.7	-5.6	0.703	x
O=C(CSc1ncc(-c2ccc(F)cc2)[nH]1)Nc1cccc(O)c1	x	x	x	99.2*	2.8	0.8	-5.4	0.657	x
CCOC(=O)c1c(-c2ccccc2)c[nH]c1C	-1.5	-12.4	5.4	x	4.4	5.2	-1.1	0.687	i
C[C@@H]1CN([C@@H](C)CO)C(=O)c2cc(Br)cnc2O[C@@H]1CN(C)C(=O)Nc1ccc(F)cc1	-2.4&0.2	3.8&8.9	0.0&-2.4	x	x	x	1.1	x	i
